UCH37 inh: inhibitors of human UCH37 deubiquitinase, primary screen, biochemical, Ub-AMC cleavage, fluorescence; AID 588478, 2011; 330,000 compounds, 0.33% hits; purified proteasome/UCH37; Ubiquitin carboxyl-terminal hydrolase isozyme L5 (Homo sapiens), Q9Y5K5; inhibition, % (concentration not given with the values);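 active = mean of two replicates above 20%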;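 note: 0% = compound-free wells with enzyme and 100% = wells lacking proteasome; stock transfer was 100 nL into about 20 µL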
Target sequence (Q9Y5K5 whole entry, looked up): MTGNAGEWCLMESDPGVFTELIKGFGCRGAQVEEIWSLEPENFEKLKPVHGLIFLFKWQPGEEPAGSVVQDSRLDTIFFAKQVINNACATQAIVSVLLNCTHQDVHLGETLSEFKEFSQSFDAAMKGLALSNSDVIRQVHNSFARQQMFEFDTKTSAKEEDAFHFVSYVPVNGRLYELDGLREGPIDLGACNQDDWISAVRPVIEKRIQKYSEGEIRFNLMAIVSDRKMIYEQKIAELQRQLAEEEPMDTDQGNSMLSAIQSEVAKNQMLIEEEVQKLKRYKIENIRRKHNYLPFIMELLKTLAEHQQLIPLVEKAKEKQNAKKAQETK
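Signal – fluorescence, ex 355 nm, em 460 nm · System – Proteasome-bound UCH37 · Input – 0.15 nM proteasome as dispensed · Timing – 30 min preincubation with enzyme, 25 min cleavage at room temperature · Read-out basis – percent inhibition of cleavage signal versus uninhibited and no-proteasome wells · Medium – Tris-HCl pH 7.4 with ATP-MgCl2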
T cruzi repl: inhibitors of intracellular T. cruzi growth, primary screen, luminescence, NIH3T3 host cells. T. cruzi beta-gal in NIH3T3, 90 h. AID 1885, 2009. inhibition, % (test concentration not listed). 300,000 compounds, 1.4% hits;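 active = mean inhibition across valid replicates above about 55%, limit read from the data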;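 note: signal also drops with host cell toxicity which is not excluded here; 0% = plate median of DMSO wells and 100% = zero luminescence signal; higher percent means less beta-gal luminescence so fewer parasites; stock transfer was 50 nL into about 50 µL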
rRNA inh HTS: reduced GFP signal of wild-type E. coli, primary screen, bacterial rRNA inhibitor project, GFP/RFP fluorescence, OD600, single point; E. coli WT GFP vs humanized-ribosome RFP mutants, 24 h; active compounds read low; DMSO median 0, no signal -100; GFP signal change (wild-type ribosome), % (concentration not given with the values); 350,000 compounds, 1.6% hits; AID 720706, 2013;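 active = significant combined selectivity score with lowered wild-type GFP, culture density cut under 30%, mutant RFP and density less affected; inactive = any of these conditions unmet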; note: one replicate is shown; some compounds called inactive have numbers as strong as hits
Ecoli growth: E. coli growth inhibition, primary screen, OD600 | OD600 absorbance (no concentration beside the values) | 330,000 compounds, 0.21% hits | Escherichia coli growth, 23 h; active compounds read low;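 active = OD600 absorbance below the run mean of sample wells minus 3.6 SD, in any replicate, cut at about 0.56 in these data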;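 note: stock transfer was 300 nL into about 60 µL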
AF4-AF9 inh: inhibitors of AF4 peptide binding to AF9, primary screen, biochemical, AlphaScreen, biotin-AF4 peptide, FLAG-AF9, single point | Protein AF-9 (Homo sapiens), P42568 | inhibition, % at 10 µM | 350,000 compounds, 0.47% hits | AID 651704, 2012;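 active = every replicate reaching a set inhibition limit, whatever the replicate mean, cut at about 25% in these data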;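 note: 0% = plate neutral control median and 100% = total signal loss; the record names both 10 and 1 µM as test concentration; the first replicate is given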
Target sequence (P42568 whole entry, looked up): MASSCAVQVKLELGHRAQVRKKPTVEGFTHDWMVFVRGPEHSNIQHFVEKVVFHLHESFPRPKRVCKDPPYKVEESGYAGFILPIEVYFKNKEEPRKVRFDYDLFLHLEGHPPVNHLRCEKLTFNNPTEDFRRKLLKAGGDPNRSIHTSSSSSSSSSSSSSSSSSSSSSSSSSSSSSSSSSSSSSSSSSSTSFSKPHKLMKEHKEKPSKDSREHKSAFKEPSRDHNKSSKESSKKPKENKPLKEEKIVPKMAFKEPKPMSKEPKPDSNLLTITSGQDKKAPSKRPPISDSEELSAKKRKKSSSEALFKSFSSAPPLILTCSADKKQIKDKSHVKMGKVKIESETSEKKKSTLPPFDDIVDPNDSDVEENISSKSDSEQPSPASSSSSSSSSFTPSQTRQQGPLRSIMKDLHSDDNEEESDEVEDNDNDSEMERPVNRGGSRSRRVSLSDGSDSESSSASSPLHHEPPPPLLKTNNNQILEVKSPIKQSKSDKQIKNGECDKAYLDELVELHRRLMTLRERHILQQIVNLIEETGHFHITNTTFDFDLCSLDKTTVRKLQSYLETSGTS
FGF22 binding: binders of human FGF22 protein, primary screen, FGF22 synaptogenesis inhibitor project, biophysical, thermal shift, single point. Fibroblast growth factor 22 (Homo sapiens), Q9HCT0. recombinant FGF22 thermal shift, SYPRO orange fluorescence; percent of sucrose octasulfate shift, DMSO zero. calls only at 9.99 µM. 340,000 compounds, 1.5% hits. AID 651658, 2012;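 active = melting point raised past a set limit in the mean and every replicate; three in four hits are not shown here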
Target sequence (Q9HCT0 whole entry, looked up): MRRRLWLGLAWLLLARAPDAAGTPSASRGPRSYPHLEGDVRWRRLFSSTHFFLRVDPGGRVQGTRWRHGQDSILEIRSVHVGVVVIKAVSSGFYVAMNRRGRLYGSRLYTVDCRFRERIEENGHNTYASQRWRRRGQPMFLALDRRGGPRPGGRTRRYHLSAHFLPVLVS
Bfl-1 A1 inh: caspase 3/7 activation in MEF A1-2A-BIM cells, primary screen, A1 inhibitor project, cell-based, luminescence, HTS. 330,000 compounds, 0.066% hits. Caspase-Glo 3/7 luminescence, 3 h; percent of clofoctol response, vehicle zero. caspase activation, % (concentration not given with the values);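 active = over half of replicate activation scores above 10%, or exactly half above 10 with the replicate mean above 10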;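 note: wells of about 30 µL received 50 nL stock; many hits fall short of the cut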
Beta cell apopt: inhibitors of cytokine-induced beta cell apoptosis, primary screen, luminescence. INS-1E cytokine-induced death, ATP luminescence, 48 h; percent of positive-control rescue, neutral wells zero. protection from apoptosis, % (concentration not given with the values). 300,000 compounds, 0.8% hits;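 active = all replicates at 75% or more, or half of them and the mean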;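 note: 0% = cytokine-treated negative control wells and 100% = positive control rescue; higher means more ATP so stronger rescue from cytokine killing; wells of about 40 µL received 100 nL stock; the first replicate is given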
rRNA inh HTS OD600: recorded beside rRNA inh HTS, whose call it bears; OD600 change, %; measured here: OD600 growth;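 optical density of the mix in the first replicate; 0 = DMSO median and -100 = no signal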
rRNA inh HTS RFP: second read-out of rRNA inh HTS, no call of its own (marks repeat the call); RFP signal change, %; measured here: RFP humanized mutant strains;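 first replicate; 0 = DMSO median and -100 = no signal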
The depositor's hits bear a star; i = inactive; · = not tested or not shown. Not all compounds are listed; rates above refer to the full screens.

SMILES	UCH37 inh	T cruzi repl	rRNA inh HTS	rRNA inh HTS OD600	rRNA inh HTS RFP	Ecoli growth	AF4-AF9 inh	FGF22 binding	Bfl-1 A1 inh	Beta cell apopt
CCC(=O)N(Cc1ccc2c(c1)OCO2)Cc1cc2cc(OC)ccc2[nH]c1=O	-4.9	-1	·	·	·	0.76	·	·	0.2	0
Cc1cccc(N2CCN(C(=O)c3ccccc3SCC(=O)N3CCCC3)CC2)c1C	0.7	·	-20	-26	-2.1	0.58	8.7	i	-0.7	-6
COCCN(C)C(=O)CCc1nnc(Cc2ccc(-c3ccccc3)cc2)o1	2.7	-11	5	-6	-4.9	0.7	-7.2	i	-0.8	-3
COc1ccc(N2CCN(C(=O)CSc3ccc([N+](=O)[O-])cc3)CC2)cc1	7.9	24	-2	9	-0.9	0.67	-7.4	i	-0.3	·
CCC(CC)CN1C(N(C)C)=NC[C@@H]1CC(C)C	2.5	·	2	0	15	0.69	1.6	i	0.4	-6
CCNC(=O)NC(=O)C(C)OC(=O)c1cccn1C (stereo not given)	-0.6	-1	21	11	-0.9	0.68	-1.5	i	0.7	-2
COc1ccc(C(CNC(=O)COc2cc(C)c(Cl)c(C)c2)N2CCCCC2)cc1 (stereo not given)	·	40	-31	-41	-8.7	·	6.7	i	·	·
CCOC(=O)c1c(-c2ccc(OC)cc2)csc1/N=C/N(C)C	·	-19	-19	-18	-1.2	·	1.4	i	-0.3	-9
CC(C)N(C(=O)Cn1c(SCC(=O)NCc2ccc3c(c2)OCO3)nc2ccccc21)C(C)C	4.3	5	·	·	·	0.79	·	·	0.5	-4
CC1CCCN(C(=O)COC(=O)CSc2ccc(C(N)=O)cc2[N+](=O)[O-])C1 (stereo not given)	-0.2	-1	8	7	2.8	0.61	0.3	i	-0.3	0
CN1CCN(C2=C(NS(=O)(=O)c3ccccc3)C(=O)c3ccccc3C2=O)CC1	12	-11	·	·	·	0.71	·	·	0.0	57
Cc1ccnc(NC(=S)NC(=O)c2cncc(Br)c2)c1	4.4	-6	·	·	·	0.72	·	·	-0.7	-4

Just rRNA inh HTS OD600 and Beta cell apopt (four entries from above):
SMILES,rRNA inh HTS OD600,Beta cell apopt
COCCN(C)C(=O)CCc1nnc(Cc2ccc(-c3ccccc3)cc2)o1,-6,-3
COc1ccc(N2CCN(C(=O)CSc3ccc([N+](=O)[O-])cc3)CC2)cc1,9,·
CCC(CC)CN1C(N(C)C)=NC[C@@H]1CC(C)C,0,-6
CCNC(=O)NC(=O)C(C)OC(=O)c1cccn1C (stereo not given),11,-2

Later entries
SMILES	UCH37 inh	T cruzi repl	rRNA inh HTS	rRNA inh HTS OD600	rRNA inh HTS RFP	Ecoli growth	AF4-AF9 inh	FGF22 binding	Bfl-1 A1 inh	Beta cell apopt
COc1cccc(C(=O)Oc2c(Br)cc(Br)cc2/C=N/NC(=O)c2cc(C)[nH]n2)c1	·	61*	-20*	-9.8*	0.2*	·	1.1	i	0.3	81*
COc1ccc(-c2noc(N3CCC(C(=O)Nc4cc(OC)ccc4OC)CC3)n2)cc1	1.7	19	-17	-13	1.9	0.79	6.0	i	0.0	1
COc1ccc(C2C(C(=O)O)CC(=O)N2c2ccc(OC)cc2)cc1 (stereo not given)	-1.2	-5	·	·	·	0.77	·	·	0.0	-3
CCC(C)NC(=O)C1CCN(S(=O)(=O)c2ccc(Br)s2)CC1 (stereo not given)	1.3	19	·	·	·	0.62	·	·	0.8	0
O=C(O)COc1ccc(C=C2SC(=S)N(c3ccccc3)C2=O)cc1	8.1	·	-17	-16	0.7	0.7	3.8	·	·	·
Clc1ccc(CN2CCSCC2)cc1Cl	4.8	6	10	11	-1.9	0.67	-4.4	i	-1.9	-4
CCOC(=O)c1cnc2c(-c3ccc(Cl)cc3)c(C)nn2c1N	-42	-3	·	·	·	0.68	·	·	1.1	5
Nc1cc(=O)[nH]c(SCC(=O)Nc2ccc(N3CCCCC3)cc2)n1	1.3	·	4	15	-2.8	0.7	-1.4	i	-0.1	4
Cc1cc(OCC(F)(F)C(F)(F)C(F)(F)C(F)F)nc(N)n1	8.1	-9	·	·	·	0.71	·	·	-0.4	8
COc1ccc(C(=O)O/N=C2\CCS(=O)(=O)c3sccc32)cc1	·	-2	25	21	3.9	·	0.7	i	-0.6	-1
CN(CC(=O)Nc1ccccc1Cl)C(=O)COC(=O)c1ccccc1[N+](=O)[O-]	1.3	-5	·	·	·	0.7	·	·	2.0	4
CNc1nc(OC)nc(N(C#N)CN2C(=O)c3ccccc3S2(=O)=O)n1	4.3	0	30	17	4.4	0.66	-0.6	i	0.3	2
O=C(c1ccc2nc(Cc3ccccc3F)oc2c1)N1CCCC1	1.9	2	-3	3	-4.6	0.67	-1.0	i	-2.4	-2
CCOC(=O)N1CCc2c(sc3c2c(=O)n(-c2ccc(CC)cc2)c(=O)n3CC(=O)NCC2CCCO2)C1 (stereo not given)	2.1	-5	·	·	·	0.68	·	·	-1.0	20
COCCNC(=O)C(c1ccc(Cl)cc1)N(Cc1ccco1)C(=O)CCC(=O)Nc1ccccn1 (stereo not given)	-0.9	-1	-6	-4	0.7	0.61	2.1	i	0.4	-2
Cc1[nH]c(=O)[nH]c(=O)c1S(=O)(=O)N1CCC(C(=O)NC(C)c2ccccc2)CC1 (stereo not given)	-1.3	-18	3	5	0.0	0.7	-12	i	0.6	-1
Nc1nc(SCc2ccccc2)n[nH]1	4.7	-5	7	-4	2.1	0.7	-1.4	i	-0.1	0
O=C(Cc1ccccc1F)c1ccc(O)cc1O	2.5	-43	-28	-28	-6.7	0.67	0.1	i	-1.1	1
O=C(N/N=C/c1cccnc1)c1ccc(O)cc1	·	-1	3	10	0.0	·	-1.6	i	2.1	-1
O=C(NCC(=O)N1CCC2(CC1)NCCc1[nH]cnc12)c1ccc2ccccc2c1	1.2	-17	2	3	1.4	0.71	4.6	i	0.9	-4
CC(C)(C)C(=O)Nc1nnc(Cc2ccccc2)s1	2.7	2	·	·	·	0.7	·	·	-0.3	1
CCNC(=S)N1CCN(c2nc(-c3ccc(F)cc3)cs2)CC1	3.6	-18	4	-1	-3.1	0.69	-2.0	i	0.9	-5
Fc1ccccc1/C=N/Nc1ncnc2nc[nH]c12	·	-9	·	·	·	·	-7.2	i	-2.4	0
CCSc1nc(N)c(C#N)c(-c2ccco2)c1C#N	-2.0	-14	·	·	·	0.69	·	·	-0.7	-3

Brought forward from above: 2 entries, then new ones.
SMILES	UCH37 inh	T cruzi repl	rRNA inh HTS	rRNA inh HTS OD600	rRNA inh HTS RFP	Ecoli growth	AF4-AF9 inh	FGF22 binding	Bfl-1 A1 inh	Beta cell apopt
Fc1ccccc1/C=N/Nc1ncnc2nc[nH]c12	·	-9	·	·	·	·	-7.2	i	-2.4	0
CCSc1nc(N)c(C#N)c(-c2ccco2)c1C#N	-2.0	-14	·	·	·	0.69	·	·	-0.7	-3
CC(=O)c1sccc1NC(=O)CC(C)(C)CC(=O)O	2.3	-19	·	·	·	0.67	-0.5	i	0.5	0
Cc1ccc(S(=O)(=O)N[C@H](C(=O)OCC(=O)NC(=O)NCc2ccco2)C(C)C)cc1	-0.2	·	-7	-6	4.2	0.64	-2.2	i	-0.6	-4
COc1ccc(-n2cnnc2SCC(=O)N2CCN(S(=O)(=O)c3ccccc3)CC2)cc1	0.8	-8	·	·	·	0.7	·	·	0.1	-1
COc1ccc(N2CCN(C(=O)CSc3nnc(CNc4ccccc4)o3)CC2)cc1	2.1	-8	·	·	·	0.66	·	·	-0.1	·
N#Cc1ccccc1S(=O)(=O)N1CCN(CC(O)COc2ccccc2F)CC1 (stereo not given)	2.8	4	2	0	0.4	0.69	-5.0	i	-0.4	-6
O=C(O)CC/C(=N\NC(=O)c1ccccc1)c1cccs1	·	-7	7	20	-1.0	·	-10	i	-0.3	-2
CN(C)c1nc(C(F)(F)F)cc(=O)[nH]1	0.9	-27	2	-2	-2.5	0.65	1.5	i	0.6	-5
Cc1ccc(C2(CC(=O)O)CCOC(C)(C)C2)cc1 (stereo not given)	5.5	-11	14	5	-0.1	0.66	·	·	-1.4	-6
C=CC[C@@H](Cc1ccc(F)cc1)C(=O)OC[C@@H]1CCCN1C(=O)[C@H](CC=C)CC(=O)N[C@H](CO)Cc1ccccc1	0.1	·	-24	-45	17	·	2.1	i	0.0	-1
COCc1[nH]nc2c1C(c1cccc(OC)c1)C(C#N)=C(N)O2 (stereo not given)	6.0	-11	·	·	·	0.7	·	·	-0.1	-1
Cc1cc(C)c(S(=O)(=O)c2ccccc2)c(OC(=O)c2cc(F)c(F)cc2Cl)n1	1.7	-2	·	·	·	0.71	·	·	1.1	-11
Fc1ccc(NCc2nnc(SCc3nnc(-c4ccccc4)o3)n2Cc2ccccc2)cc1	5.6	31	·	·	·	0.73	·	·	-0.5	7
CCCC[C@@H]1CCCO[C@@](C(=O)NCc2cc(C)n(C)n2)(C(F)(F)F)C1	-1.0	6	-4	-1	-3.7	·	-1.3	i	1.3	·
CC(C)C[C@H](NC(=O)c1cc2cc(Cl)ccc2n1C)C(=O)N1CCC[C@H]1C(=O)O	1.1	-2	·	·	·	0.73	-4.1	i	0.3	-3
O=C(c1ccccc1)c1nc2ccccc2n(CCCn2c(=O)c(C(=O)c3ccccc3)nc3ccccc32)c1=O	2.8	45	·	·	·	0.68	·	·	-0.8	14
Cn1c(SCC(=O)NC2CC2)nnc1-c1ccccc1	2.0	-3	16	7	1.9	0.69	-0.6	i	-0.2	20
COc1ccc(S(=O)(=O)N(CC(=O)Nc2ccc(S(=O)(=O)N3CCOCC3)cc2)c2ccccc2)cc1	1.2	14	·	·	·	0.73	·	·	1.3	11
COc1ccc(S(=O)(=O)N[C@H](C(=O)N2CC[C@@]3(O)CCCC[C@H]3C2)c2ccccc2)cc1	5.6	-11	·	·	·	0.74	·	·	-0.8	4
CC(C)=CCOc1ccc([C@@H]2COc3c(ccc4c3C=CC(C)(C)O4)C2)c(O)c1	2.0	32	-7	-20	-4.6	0.74	9.5	i	0.7	42
COc1ccc(-c2c(C)nn3c(N4CCN(Cc5ccccc5)CC4)cc(C)nc23)cc1OC	0.4	28	-5	-5	-1.2	0.71	15	i	-0.7	7
CCC1(c2ccccc2)NC(=O)N(CC(=O)Nc2ccc3c(c2)OCO3)C1=O (stereo not given)	1.4	-2	-4	-5	1.2	0.72	-75	i	-0.1	-5
O=C1C(C=Nc2ccccc2)=C(O)c2ccccc21	4.2	-15	·	·	·	0.72	·	·	-12	-5
CN1CCN(c2ccccc2NC(=O)c2ccc(-c3ccc(Br)cc3)o2)CC1	-28	65*	·	·	·	0.73	·	·	-0.8	35
